HNF4A DNA FP = change in binding of human HNF4 alpha to DNA; HNF4a-FITC DNA binding, fluorescence polarization, 1 h; AID 1224865; 0.3% of 360,000 active; activity change, % at 10 µM; in the data active means activity change above about 30%, passing the limit was not always enough;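 further: controls were the assay level and a saturating level of protein; the project sought stronger binding though the title names inhibitors; some compounds called inactive have numbers as strong as hits; positive values seem to mean higher polarization but the record does not say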
Target sequence (P41235 whole entry, looked up): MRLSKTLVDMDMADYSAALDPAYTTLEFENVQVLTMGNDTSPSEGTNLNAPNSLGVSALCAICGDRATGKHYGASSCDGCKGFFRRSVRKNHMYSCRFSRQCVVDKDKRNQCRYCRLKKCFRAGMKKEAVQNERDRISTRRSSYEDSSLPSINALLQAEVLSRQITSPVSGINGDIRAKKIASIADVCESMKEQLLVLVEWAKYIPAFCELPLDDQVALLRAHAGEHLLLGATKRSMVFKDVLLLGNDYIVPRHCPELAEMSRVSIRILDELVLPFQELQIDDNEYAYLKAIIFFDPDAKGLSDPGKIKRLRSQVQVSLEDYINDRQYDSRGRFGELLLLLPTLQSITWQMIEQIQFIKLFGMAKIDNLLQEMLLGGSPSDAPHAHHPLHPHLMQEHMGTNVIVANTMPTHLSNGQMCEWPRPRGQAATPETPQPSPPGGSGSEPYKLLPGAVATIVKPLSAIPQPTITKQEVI
Starred values were filed as active, the others as inactive. The list is partial. The share of hits here may be higher or lower than overall.

SMILES	HNF4A DNA FP
Cc1c(C(=O)NCc2ccccn2)sc(=O)n1Cc1ccc(-c2ccccc2)cc1	5.9
COCCN1C(=O)CSCC1(C)C(=O)Nc1c(C)cccc1C (stereo unspecified)	5.2
CCCc1nc2c(C)cc(Br)cn2c1Cc1ccccc1C(F)(F)F	4.7
C[C@@H](c1ccccc1)N1C[C@H](COCc2ccccc2)Oc2cc(N3CC[C@H](N(C)C)C3)ccc2S1(=O)=O	3.7
CC(C)C[C@H]1CNC(=S)N1C[C@H]1CCCN1C[C@H](CC(C)C)N1C[C@H](Cc2ccc(O)cc2)N(CCc2ccccc2)C1=S	1.0
C=CCNc1nc(NCCCN2CCCC2=O)c2sc(-c3ccccc3)cc2n1	3.3
CCOC1=C2CN(S(=O)(=O)c3ccc(C)cc3)[C@H](c3cccs3)C[C@H]2n2c(=O)n(-c3ccccc3)c(=O)n2C1	2.5
CC(=O)OC[C@@H]1CN(Cc2ccccc2)C[C@H](n2cnc3c(N4CCCC4)ncnc32)O1	6.2
O=c1[nH]c2ccccc2nc1-c1nnnn1Cc1ccccc1	-0.3
COc1ccccc1CNC(=O)C1(C)CCN1Cc1ccc2ccccc2c1 (stereo unspecified)	-2.5
O=C(NCc1cc(Cl)cc(Cl)c1)c1ccc2nc([C@H]3C[C@H](O)[C@@H](CO)O3)[nH]c2c1	2.1
CC(C)NC(=O)c1cc(C2CCCCN2C(=O)c2ccc(C(C)C)cc2)on1 (stereo unspecified)	6.0
O=S1(=O)CC(N2CCCCC2)CN1Cc1ccc(F)cc1 (stereo unspecified)	1.3
Cc1cccc(S(=O)(=O)NC(=O)C2(C)CCN2C(=O)c2sccc2C)c1 (stereo unspecified)	-0.3
CCCN(C)C[C@@H]1OCCCC[C@@H](C)Oc2ccc(NS(=O)(=O)c3ccc(OC)cc3)cc2C(=O)N([C@H](C)CO)C[C@@H]1C	0.7
CC1(C(=O)NCc2ccc(F)c(F)c2)Cc2c(-c3ccc4c(c3)OCO4)ccnc2O1 (stereo unspecified)	-0.8
O=C(c1ccccc1)c1ccc(N2CCN(C(=O)c3ccc(F)cc3F)CC2)c(F)c1	0.3
O=C(NC(c1ccccc1)c1ccc2ccccc2n1)C1CCN(Cc2cccc(C(F)(F)F)c2)CC1 (stereo unspecified)	4.1
COc1ccc(C(C)NC(=O)C2CCN(CCCc3ccccc3)CC2)cc1OC (stereo unspecified)	0.8
CCCCNC(=O)C[C@@H]1C[C@@]2(C(=O)OC)CCCCC=C2N(Cc2cccc3ccccc23)C1=O	4.1

7 entries drawn at random from those above, as already listed:
SMILES	HNF4A DNA FP
O=C(c1ccccc1)c1ccc(N2CCN(C(=O)c3ccc(F)cc3F)CC2)c(F)c1	0.3
COc1ccc(C(C)NC(=O)C2CCN(CCCc3ccccc3)CC2)cc1OC (stereo unspecified)	0.8
O=C(NCc1cc(Cl)cc(Cl)c1)c1ccc2nc([C@H]3C[C@H](O)[C@@H](CO)O3)[nH]c2c1	2.1
Cc1cccc(S(=O)(=O)NC(=O)C2(C)CCN2C(=O)c2sccc2C)c1 (stereo unspecified)	-0.3
CC(C)NC(=O)c1cc(C2CCCCN2C(=O)c2ccc(C(C)C)cc2)on1 (stereo unspecified)	6.0
CCCN(C)C[C@@H]1OCCCC[C@@H](C)Oc2ccc(NS(=O)(=O)c3ccc(OC)cc3)cc2C(=O)N([C@H](C)CO)C[C@@H]1C	0.7
CC1(C(=O)NCc2ccc(F)c(F)c2)Cc2c(-c3ccc4c(c3)OCO4)ccnc2O1 (stereo unspecified)	-0.8

Additional results follow.
SMILES	HNF4A DNA FP
CC(Sc1nnc(-c2ccncc2)n1C)C(=O)NCC(=O)Nc1ccc(F)c(F)c1F (stereo unspecified)	-2.2
CCCCNC(=O)C1(C)CCN1C(=O)c1cc(OC)ccc1Br (stereo unspecified)	-2.2
COCCNC(=O)C1(C)CCN(C(=O)c2ccc3c(c2)C(C)(C)CCC3(C)C)C1 (stereo unspecified)	1.5
CCS(=O)(=O)NC(=O)C1(C)CCN1C(=O)C1(c2ccc(Cl)cc2)CC1 (stereo unspecified)	2.1
CC1CCC(C(O)(C(=O)c2ccccc2)c2ccccc2)C(=O)C1 (stereo unspecified)	0.5
CC(C)NC(=O)C1(C)CCN1CCC(=O)c1ccccc1 (stereo unspecified)	1.1
Cn1ccc2c(-c3cccc(C=O)c3F)cc3c(c21)C1CCC3C1 (stereo unspecified)	-2.5
O=S1(=O)C[C@H](N2CCN(CC3CC3)CC2)[C@@H](COCc2ccccc2)N1	2.2
CCCCn1nnnc1C(c1cc2ccccc2o1)N(C)CCc1ccccc1 (stereo unspecified)	-4.3
O=c1c(-c2cccs2)nc2ccccc2n1C(CCc1ccccc1)c1nc2ccccc2[nH]1 (stereo unspecified)	4.1
CCC(C(=O)NCc1ccccc1)n1c(CSCCOc2ccccc2)nc2ccccc21 (stereo unspecified)	3.9
CCCCNC(=O)C1(C)CCN1C(=O)c1ccc(C(F)(F)F)nc1C (stereo unspecified)	0.0
O=C(Nc1ccc2c(c1)OCO2)c1cc(C2CCCCN2S(=O)(=O)c2cccs2)on1 (stereo unspecified)	-5.2
COc1cccc(CNC(=O)[C@@H]2CCCN2C(=O)[C@@H]2CCCN2C(=O)c2ccccc2)c1	0.9
COC(=O)[C@]12CCCCC=C1N(Cc1ccc3c(c1)OCO3)C(=O)[C@H](CC(=O)N1CCOCC1)C2	1.9
CC(C)(C)C1CCSC2=NCCC[C@]2(c2ccccc2)C1 (stereo partly specified)	6.4
CCCCNC(=O)C1(C)CCN1C(=O)c1cncc(Br)c1 (stereo unspecified)	2.0
O=S1(=O)CC(N2CCN(CCO)CC2)CN1Cc1ccc(F)cc1 (stereo unspecified)	-2.2
CCNC(=O)C1(C)CCCN(Cc2cccc3c(OC)cc(C(=O)OCC)cc23)C1 (stereo unspecified)	1.4
CC(O)(c1ccccc1)c1nc(-c2ccc3c(c2)OCO3)cs1 (stereo unspecified)	1.1
CC1(C)OC(=O)C2=C(C[C@@H](CCc3ccccc3)O[C@H]2CCc2cccc(Cl)c2)O1	-0.2
O=S1(=O)C[C@@H](N2CCN(CCO)CC2)[C@H](COCc2ccccc2)N1	1.4
CN(C)c1cccc(CNC(=O)c2csc([C@H]3C[C@H](O)[C@@H](CO)O3)n2)c1	-0.8
CC1(C(=O)NS(=O)(=O)c2cccc(Cl)c2)CCN1C(=O)Cc1cc(F)ccc1F (stereo unspecified)	-0.9
CC(C)NC(=O)C1(C)CSCC(=O)N1CCCn1ccnc1 (stereo unspecified)	-18
COc1cccc(Cn2c3ccc(NC(=O)CC(C)C(F)(F)F)cc3c(=O)n2C)c1 (stereo unspecified)	1.0
N#CCc1ccc(OCCCN2CCC(C(O)(c3ccccc3)c3ccccc3)CC2)cc1	3.9
COc1ccc(C(C)(O)c2nc(-c3cnc4ccccc4c3)cs2)cc1 (stereo unspecified)	1.8
CCc1ccc(N2CC(C(=O)N3CCN(c4ccc([N+](=O)[O-])cc4)CC3)CC2=O)cc1 (stereo unspecified)	-2.8
O=C(NCc1ccc(Cl)cc1)c1ccc(-c2ccc(F)c(F)c2)c2ccoc12	0.8
CN(C)S(=O)(=O)c1cccc(NC(=O)CNc2cccc(S(=O)(=O)N3CCCCC3)c2)c1	0.9
O=C(NCc1ccccc1)C1c2ccccc2OCC(=O)N1CCc1c[nH]c2ccccc12 (stereo unspecified)	1.6
CC1(C(=O)NS(=O)(=O)Cc2ccccc2C(F)(F)F)CCN1C(=O)Cc1ccccc1 (stereo unspecified)	0.0
CS(=O)(=O)Nc1ccc(-c2ccc3nccn3c2)cc1	10
CC1NC(=O)c2ccccc2-n2c1nc1ccc(F)cc1c2=O (stereo unspecified)	-4.8
Fc1ccc(-c2nc3c4ccccc4ccn3c2CC2CCCCC2)cc1	-0.3
CCCCNC(=O)C1(C)CCCCN1C(=O)c1cc(OC)ccc1Br (stereo unspecified)	-0.3
O=C(NC(c1ccc(Cl)cc1)c1ccsc1)C1CCN(Cc2ccc(Oc3ccccc3)cc2)CC1 (stereo unspecified)	-1.5
CSc1ccc(CN2CCC2(C)C(=O)NCc2ccc3c(c2)OCO3)cc1 (stereo unspecified)	-3.8
CC1(c2nc3ccccc3[nH]2)CCC(=O)N1C1CC1 (stereo unspecified)	-2.7
CO[C@H]1CN(C)C(=O)c2cc(NS(=O)(=O)c3ccccc3)ccc2OC[C@@H](C)N(Cc2ccccn2)C[C@@H]1C	0.8
COc1ccccc1C=C(C(=O)c1ccccc1)c1ccccc1	-1.2
C=CCCC(=O)N1C[C@H]2CON(C)[C@H]2C[C@H]1c1ccc(N2CCCCC2)cc1	43*
Cc1cc(Cl)ccc1C(O)c1ncc(-c2ccccc2C(F)(F)F)[nH]1 (stereo unspecified)	3.5
O=c1[nH]c(=S)[nH]c2c1C(c1ccc(F)cc1)OC(CCC(F)(F)F)C2 (stereo unspecified)	0.1
Cc1ccc(F)c(S(=O)(=O)NC(=O)C2(C)CCN2C(=O)c2cccc3ccccc23)c1 (stereo unspecified)	1.4
CCc1nc2ccc(C(=O)N3CCN(C)CC3)cn2c1N(C)CCCc1ccccc1	0.9
CC(Oc1ccc(Br)cc1)C(=O)N(Cc1ccccc1)c1c(N)n(Cc2ccccc2)c(=O)[nH]c1=O (stereo unspecified)	-2.9
CN1OC[C@@H]2CN(C(=O)C(C)(C)C)[C@H](c3ccc(-c4cccnc4)cc3)C[C@@H]21	5.3
CC(=O)OCC(=O)C1(O)CCC2C3CC(C)C4=CC(=O)C=CC4(C)C3C(O)CC21C (stereo unspecified)	0.6
New compounds follow:
SMILES	HNF4A DNA FP
O=C(NC1CCCCC1)c1nc(-c2c(F)cccc2F)oc1-c1ccccc1	-4.8
O=C(Nc1cccc(Cl)c1Cl)c1csc([C@@H]2O[C@H](CO)[C@@H](O)[C@H]2O)n1	0.7
CCC(=O)N1CCC(C)(C(=O)Nc2ccc(OC)c(OC)c2)C1 (stereo unspecified)	0.0
CSc1ccc(CN2CCC(C)(Oc3cccc(F)c3)C2)cc1 (stereo unspecified)	-1.2
COc1ccc(Cl)cc1C1=NOC2(CCC2)C(=O)N1Cc1cccc(C#N)c1	0.3
Cc1ccc(S(=O)(=O)N2CCC(=O)N([C@H](COC(=O)Nc3ccccc3)Cc3ccccc3)CC2)cc1	-2.1
CCOC(=O)[C@]12CCCC=C1N(Cc1ccccc1)C(=O)[C@H](CC(=O)NCCCN1CCCC1=O)C2	-0.5
COC(=O)C1(C(=O)OC)C[C@H](/C=C/c2ccccc2)N(Cc2ccccc2OC)[C@@H]1c1ccccc1	-0.4
c1cc(-c2cc3nc(NC4CCCCC4)ccn3n2)ccc1OCCN1CCOCC1	-1.0
CC(=O)NCCNC(=O)C1Cc2c(-c3ccccc3Oc3ccccc3)ccnc2O1 (stereo unspecified)	-0.8
COC(=O)C1=CN(c2ccc(Oc3ccccc3)cc2)C(N)=C(C#N)C1c1cccc(OC)c1OC (stereo unspecified)	0.9
COc1ccccc1N(C)c1cc2c(c3c1ccn3C)C1CCC2C1 (stereo unspecified)	-0.6
c1ccc(CNc2nc(NCC3CC3)nc3cc(-c4ccccc4)sc23)cc1	-4.9
COc1cccc(CNc2nc3cc(-c4cccc(C(F)(F)F)c4)sc3c(=O)n2C)c1	-19
CCc1nc2ccc(C(=O)N3CCNC(=O)C3)cn2c1N(C)CCC(C)C	1.1
CCNC(=O)C1(C)CCCN(C(=O)c2cc(OC)ccc2Br)C1 (stereo unspecified)	-1.9
CCc1nc2c(OCc3cc(Cl)cc(Cl)c3)cccn2c1N(C=O)Cc1ccccc1	1.4
Cc1ccccc1Cn1c(C)c(C(=O)N(C)Cc2ccc(F)cc2)sc1=O	4.3
Cc1ccc(S(=O)(=O)NC(=O)C2(C)CCN2C(=O)c2cccc(F)c2)nc1 (stereo unspecified)	2.9
CCCCn1nnnc1C(c1ccccc1)N1CCN(c2cccc(C)c2C)CC1 (stereo unspecified)	-5.3
CCCNC(=O)C1(C)CCCN(C(=O)c2cccc(Cl)c2)C1 (stereo unspecified)	-2.7
CCNC(=O)C1CCCN(C(=O)c2ccc(C(=O)OC)cc2)CC1 (stereo unspecified)	2.8
CCCCCCCCN1C(=O)[C@H](CC(=O)NCC23CC4CC(CC(C4)C2)C3)C[C@@]2(C(=O)OC)CC(C)(C)CC=C12	-2.1
CC1=C(C#N)C(C)(C)C(C#N)=C(C)N1	-0.9
CCOC(=O)C1(C)CCCN1C(=O)c1ccc(N(C)C)cc1 (stereo unspecified)	-3.2
COc1ccc(OC)c(NC(=O)C2(C)CCN2C(=O)C2(c3ccc(Cl)cc3)CCC2)c1 (stereo unspecified)	7.2
Cc1ccc2c(c1)CCO[C@]21O[C@H](CCO)C[C@H](O)[C@H]1O	1.1
CCN(CC)c1c(C)nc2ccc(C(=O)N3CCN(C(=O)c4ccco4)CC3)cn12	0.9
CCOC(=O)[C@]12CCCC=C1N(Cc1ccc3c(c1)OCO3)C(=O)[C@H](CC(=O)NCc1cccc(C(F)(F)F)c1)C2	-0.5
O=C(NC1CCCC1)C(c1ccccc1)n1c(CSCCOc2ccccc2)nc2ccccc21 (stereo unspecified)	5.8

Not a retest: entries from further up.
SMILES	HNF4A DNA FP
CCCNC(=O)C1(C)CCCN(C(=O)c2cccc(Cl)c2)C1 (stereo unspecified)	-2.7
CCNC(=O)C1CCCN(C(=O)c2ccc(C(=O)OC)cc2)CC1 (stereo unspecified)	2.8
CCCCCCCCN1C(=O)[C@H](CC(=O)NCC23CC4CC(CC(C4)C2)C3)C[C@@]2(C(=O)OC)CC(C)(C)CC=C12	-2.1
CC1=C(C#N)C(C)(C)C(C#N)=C(C)N1	-0.9
CCOC(=O)C1(C)CCCN1C(=O)c1ccc(N(C)C)cc1 (stereo unspecified)	-3.2

Further compounds follow:
SMILES	HNF4A DNA FP
COc1ccc(C(=O)N2CCCCC2c2cc(C(=O)NCc3ccccc3)no2)cc1 (stereo unspecified)	-2.1
Cc1ccc(NC(=O)C2(C)CCN2C(=O)Cc2ccccc2Cl)cc1C (stereo unspecified)	-0.9
O=C(NCc1ccco1)Nc1nnc([C@H]2C[C@H](O)[C@@H](CO)O2)s1	3.0
CNc1cncc(-c2ccc(OC)cc2)n1	2.8

Screens deposited in PubChem by Sanford-Burnham Center for Chemical Genomics.
